Source: PubChem BioAssay (Fisher Drug Discovery Resource Center)
NPYLR7 ag = agonists of mosquito NPYLR7 receptor, primary screen, cell-based, Aedes aegypti, calcium fluorescence, mosquito biting behavior | Aedes aegypti neuropeptide Y-like receptor 7 (NPYLR7) | HEK293T NPYLR7/Galpha15, GCaMP6s calcium fluorescence | activation, % at 10 µM | actives 0.15% (n = 270,000); in the data active = activation above about 40%;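 note: 0% = vehicle and 100% = reference agonist at the receptor; some compounds past the cut are filed as inactive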
NPYLR7 ag max-min = also measured in NPYLR7 ag; calls as there; activation, %; measured here: Max-Min RFU normalised activation; some inactives read as strong as hits;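 span of the calcium signal over five minutes; 0% = vehicle and 100% = native peptide agonist; compound fluorescence can raise it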
Starred values were filed as active, the others as inactive. The list is partial; the hit share may differ from the screen's.

Preview (four entries):
1. CCCCCCCCCCCCCCCCCCN(C)C
2. O=C(NCc1c(-c2ccccc2)nc2n1CCS2)C1c2ccccc2Oc2ccccc21
3. Cc1nn(C2CCS(=O)(=O)C2)c2nc(-c3cccs3)cc(C(=O)N3CCCC(C)C3)c12 (configuration not stated)
4. Cn1ccc2c(C(=O)OC[C@H]3COC(C)(C)O3)cccc21

entry no.,1,2,3,4
NPYLR7 ag,-15.9,5.1,0.8,8.8
NPYLR7 ag max-min,-29.7,3.6,5.3,10.8

This part in full, previewed entries included:
1. CCCCCCCCCCCCCCCCCCN(C)C
2. O=C(NCc1c(-c2ccccc2)nc2n1CCS2)C1c2ccccc2Oc2ccccc21
3. Cc1nn(C2CCS(=O)(=O)C2)c2nc(-c3cccs3)cc(C(=O)N3CCCC(C)C3)c12 (configuration not stated)
4. Cn1ccc2c(C(=O)OC[C@H]3COC(C)(C)O3)cccc21
5. CCC(=O)C1=C(c2ccc(CC)cc2)N(C(=O)CC)n2c(C)nnc2S1
6. CCCCCCCCN(Cc1nccn1C)C(=O)Cc1ccc2c(c1)OCO2

entry no.,1,2,3,4,5,6
NPYLR7 ag,-15.9,5.1,0.8,8.8,2.1,6.3
NPYLR7 ag max-min,-29.7,3.6,5.3,10.8,-0.9,5.6

7. COc1ccc(-n2ccnc(SCC(=O)c3ccc(OC)c(OC)c3)c2=O)cc1
8. COc1ccc(S(=O)(=O)NCC2CCCN(C(=O)c3occc3C)C2)cc1 (configuration not stated)
9. CCC(C)C(NC(=O)CSc1ccccc1)C(=O)Nc1nnc(-c2cccc(C)c2)s1 (configuration not stated)
10. O=C(c1cccc(CSc2nc(Cl)cc(N3CCOCC3)n2)c1)N1CCCC1
11. O=C(NCCc1ccc(C(F)(F)F)cc1)C1=COCCO1
12. COc1ccc(CNc2n[nH]c(=S)s2)cc1

entry no.,7,8,9,10,11,12
NPYLR7 ag,25.1,11.2,10.2,12.6,13.2,14.7
NPYLR7 ag max-min,18.8,4.7,24.4,24.7,14.2,11.3

13. COCCCn1c(SC(C(=O)NC2CC2)c2ccccc2)nnc1-c1ccccc1Cl (configuration not stated)
14. CSc1ccc(C(=O)N2CCC(n3c(C)nc4cc(C(F)(F)F)ccc43)CC2)cc1
15. CCCCn1c(SCC(=O)N2CCCCC2)nc2c(-c3ccccc3)c[nH]c2c1=O
16. CCOC(=O)Cc1csc2ncc(NC(=O)c3ccc(F)cc3)c(=O)n12
17. CC(C)(C)c1ccc(CC2CCN(C(=O)c3cc(F)cc(C(F)(F)F)c3)CC2)cc1
18. N#Cc1c[nH]n2c(NC3CCCCC3)c(-c3cccs3)nc12

entry no.,13,14,15,16,17,18
NPYLR7 ag,-0.4,-1.0,-5.1,6.9,1.5,1.0
NPYLR7 ag max-min,-3.5,-2.0,-11.9,4.9,5.2,-2.5

19. O=C(NCc1cccnc1Oc1ccccc1F)c1n[nH]c2c1CCCC2
20. CCc1nnc(C2CCN(C(=O)C(C)(C)C)CC2)s1
21. CCCCNS(=O)(=O)c1ccc2[nH]c(=S)[nH]c2c1
22. CC1(C(=O)Nc2ccc3c(c2)OCCO3)CCN1C(=O)CCc1cccs1 (configuration not stated)
23. CC(C)Nc1ccc(C(=O)Nc2ccccc2)cn1
24. Cc1cccc2sc(N3C(=O)C4C5C=CC(C5)C4C3=O)nc12 (configuration not stated)

entry no.,19,20,21,22,23,24
NPYLR7 ag,31.4,-6.8,4.6,8.9,-3.9,-11.4
NPYLR7 ag max-min,20.3,-3.7,3.1,6.3,-4.5,-12.1

25. O=C1C2C3C=CC(O3)C2C(=O)N1c1ccccc1Br (configuration not stated)
26. CCc1ccc(C(=O)N(CCOC)Cc2nc3ccccc3o2)cc1
27. COc1ccc(C(=O)N2CCN(c3ncccc3NC(=O)c3ccc4c(c3)OCO4)CC2)cc1F
28. Cc1ncc(C(=O)NCc2nc3c(s2)CCCC3)c(C)n1
29. Cc1nc(CN2CCN(Cc3cccc(F)c3)CC2)co1
30. CCCCCC(=O)Nc1c(-c2cccc(OC)c2)nc2ccccn12

entry no.,25,26,27,28,29,30
NPYLR7 ag,16.0,0.0,20.4,18.9,3.7,-10.3
NPYLR7 ag max-min,4.0,-2.0,10.6,10.6,5.4,-1.9

31. Cc1noc(C(NC(=O)CCC(=O)c2ccccc2)C(C)C)n1 (configuration not stated)
32. CN(c1ccccc1)S(=O)(=O)c1cccc(C(=O)NC(C)(C)C)c1
33. COc1cc(CNC(=O)/C=C(/c2ccc(Cl)cc2)C(F)(F)F)ccc1O
34. Cc1cnc(NC(=O)c2ccc3c(c2)OCO3)s1
35. Cc1cc(=O)[nH]c(C(C)N2CCN(c3nc(C)ns3)CC2)n1 (configuration not stated)
36. CC(C)(CNCc1ccc(-c2ccccc2Br)s1)N1CCS(=O)CC1

entry no.,31,32,33,34,35,36
NPYLR7 ag,1.4,-12.4,-0.2,-18.0,8.3,6.1
NPYLR7 ag max-min,0.6,-11.4,-1.9,-25.1,10.1,3.0

37. Cc1cnc(C(=O)NCCCCCCNC(=O)c2cnc(C)cn2)cn1
38. CC(=O)c1cn(CC(=O)NC2CCC(n3cnnc3)CC2)c2ccccc12 (configuration not stated)
39. CC(=O)c1csc(NC(=O)C2CCN(C(=O)c3ccsc3)CC2)n1
40. O=c1c2cc(Cl)ccc2ncn1CCCOc1ccc(Cl)cc1
41. CN(Cc1ccco1)C(=O)c1ccccc1N1CCC(NC(=O)c2ccc(Cl)c(Cl)c2)CC1
42. Cc1c(C(=O)N(C)Cc2ccco2)sc2ncnc(N3CCCCCCC3)c12

entry no.,37,38,39,40,41,42
NPYLR7 ag,5.6,-2.0,7.8,-7.6,2.3,2.6
NPYLR7 ag max-min,1.7,-2.6,5.3,-9.7,17.7,0.3

From entry 38 to 42, as listed above:
38. CC(=O)c1cn(CC(=O)NC2CCC(n3cnnc3)CC2)c2ccccc12 (configuration not stated)
39. CC(=O)c1csc(NC(=O)C2CCN(C(=O)c3ccsc3)CC2)n1
40. O=c1c2cc(Cl)ccc2ncn1CCCOc1ccc(Cl)cc1
41. CN(Cc1ccco1)C(=O)c1ccccc1N1CCC(NC(=O)c2ccc(Cl)c(Cl)c2)CC1
42. Cc1c(C(=O)N(C)Cc2ccco2)sc2ncnc(N3CCCCCCC3)c12

entry no.,38,39,40,41,42
NPYLR7 ag,-2.0,7.8,-7.6,2.3,2.6
NPYLR7 ag max-min,-2.6,5.3,-9.7,17.7,0.3

The listing continues:
43. O=c1c2ccccc2c(-c2ccc(Cl)cc2)nn1-c1ccccc1
44. O=C(NCc1ccc(F)cc1)c1cc(-c2cccs2)nn1-c1ccccc1Cl
45. Cc1ccc(C(=O)CSc2nc3ccccc3c(=O)n2-c2cccnc2)cc1
46. CNc1nnc(SCC(=O)c2c(N)n(C3CC3)c(=O)[nH]c2=O)s1
47. COCCn1cncc1CNC(=O)c1cc(NC(C)=O)ccc1Cl
48. Cc1ccc(NC(=O)NC2CCCCC2CO)c(C)c1 (configuration not stated)

entry no.,43,44,45,46,47,48
NPYLR7 ag,29.8,-1.1,-1.1,8.1,11.8,7.6
NPYLR7 ag max-min,17.9,7.0,15.9,6.2,3.1,3.9

49. N#CCCN(C(=O)c1ccc2nonc2c1)C1CC1
50. Cc1cc(C)nc(NS(=O)(=O)c2ccc(NC(=S)NC(=O)c3ccc(Cl)cc3Cl)cc2)n1
51. O=S(=O)(c1ccc(F)c(Cl)c1)N1CCCN(c2nc3ccccc3nc2-c2ccccc2)CC1
52. O=C(NC1CCN(c2ccccc2C(=O)N2CCc3ccccc3C2)CC1)c1cc(F)cc(F)c1
53. CN(C(=O)COc1coc(CN2CCN(c3ccccc3)CC2)cc1=O)c1ccccc1
54. C/C(=C/C(=O)NC1CCN(C(=O)C(C)C)CC1)c1ccccc1Cl

entry no.,49,50,51,52,53,54
NPYLR7 ag,7.0,-1.0,5.8,-1.1,-1.2,-1.1
NPYLR7 ag max-min,0.6,8.0,2.5,3.4,30.3,-2.6

55. COCCCN(Cc1c(-c2ccc(F)cc2)noc1N1CCN(C)CC1)C(=O)c1ccc(OC)cc1
56. O=C(Nc1ccc2c(c1)CCN2C(=O)c1ccoc1)C1CC(c2ccccc2)=NO1 (configuration not stated)
57. CN1CCn2nc(C(=O)NCCn3nc(-c4ccccc4)ccc3=O)cc2C1
58. Clc1ccccc1-c1nc(N2CCN(c3ccccc3)CC2)nc2ccc(Br)cc12
59. O=[N+]([O-])c1ccccc1OCc1nc2ccccc2c2ccccc12
60. O=C(c1cccs1)C1CCCN(C(=O)c2cn(CCc3ccccc3)nn2)C1 (configuration not stated)

entry no.,55,56,57,58,59,60
NPYLR7 ag,-3.3,2.4,-3.2,19.6,-1.2,9.8
NPYLR7 ag max-min,-0.4,3.3,-6.2,11.0,-2.4,2.2

61. COc1ccc(NC(=O)C(C2CCCC2)N2CCN(C(=O)c3cccc(C)c3)CC2)cc1 (configuration not stated)
62. COC(C)CCOC(=O)c1cc(C(C)C)[nH]n1 (configuration not stated)
63. O=C1c2ccccc2NC(c2cccc(O)c2)N1c1ccccc1 (configuration not stated)
64. Cc1ccccc1COc1cn(CC(=O)NC2CCCC2)c(C)cc1=O
65. CCN(CCO)Cc1cn(C)nc1-c1ccc(C2CCCCC2)cc1
66. Cc1cc(C)n(CC2CCCCN2Cc2c(C)nn(C)c2Cl)n1 (configuration not stated)

entry no.,61,62,63,64,65,66
NPYLR7 ag,-1.5,-5.4,-7.1,1.2,6.3,6.6
NPYLR7 ag max-min,2.2,-9.6,-13.4,-1.7,5.0,18.9

67. C=CCNC(=O)C1CC(=O)N(C2CCCCCC2)C1 (configuration not stated)
68. CC(C)c1nc(CN(C)C(=O)C2CCC(=O)N(CCc3ccccn3)C2)no1 (configuration not stated)
69. O=C(Nc1ccc(-c2noc(-c3cccs3)n2)cc1)c1cccc(Cl)c1
70. C=CCNC(=O)N1C[C@@H](C(=O)OCC)[C@@H]2Oc3cc(OC)ccc3[C@@H]21
71. CCOC(=O)c1cc(-c2cccc(NC(=O)c3ccc4c(c3)OCCN4C)c2)n(-c2ccccc2C)n1
72. CN(CC1CCCN(CCc2ccccc2F)C1)C(=O)c1ccnn1C (configuration not stated)

entry no.,67,68,69,70,71,72
NPYLR7 ag,22.0,3.9,-2.4,2.0,1.6,6.0
NPYLR7 ag max-min,9.1,-0.2,-8.4,1.3,0.5,5.6

73. CCCCC(=O)Nc1ccc(N2CCCCC2)c(C(=O)NCc2ccccc2)c1
74. CCSC1CCC1(O)CNC(=O)c1c(F)cc(F)cc1F (configuration not stated)
75. CC(C)Nc1nc(Cl)nc(NC(C)(C)CO)n1
76. CCOc1ccc(C(=O)CSc2nc3sc(C)cc3c(=O)n2C)cc1
77. O=C(O)c1[nH]ncc1CN1CCCC(C(=O)c2ccc(C(F)(F)F)cc2)C1 (configuration not stated)
78. O=C(NCc1cc(C2CC2)n[nH]1)c1ccc2oc(Cc3ccccc3)nc2c1

entry no.,73,74,75,76,77,78
NPYLR7 ag,1.8,-13.4,8.6,-8.6,3.2,11.5
NPYLR7 ag max-min,0.8,-14.2,1.1,-7.4,-0.7,5.2

79. COc1ccccc1N(CN1C(=O)c2cc(Cl)c(Cl)cc2C1=O)C(C)=O
80. O=C(c1cccc(CSc2cc(Cl)ccc2Cl)c1)N1CCOCC1
81. O=C(NC1CCCCC1)N1CCC(n2cc(-c3ccccn3)nn2)CC1
82. CC(NC(=S)NC1CCCCC1)C(c1cccs1)N1CCCC1 (configuration not stated)
83. CC(C)N(C#N)c1nc(N2CCOCC2)nc(N2CCOCC2)n1
84. CCCCc1ccc(Nc2nnc(C)c(=O)[nH]2)cc1

entry no.,79,80,81,82,83,84
NPYLR7 ag,1.0,25.4,8.2,15.1,-3.0,9.8
NPYLR7 ag max-min,-4.3,21.0,4.8,11.1,-5.3,5.3

85. CCc1nc(C2CCN(C(=O)c3nc4cccc(C)n4c3F)CC2)cc(=O)[nH]1
86. CCCC(C)c1nnc(NC(=O)c2cnc(-c3ccccn3)nc2)s1 (configuration not stated)
87. NC(=O)C1CN(C(C(=O)Nc2ccc(F)cc2)c2ccccc2)CCO1 (configuration not stated)
88. CC1C(=O)N(c2cccc(C(F)(F)F)c2)CCN1C(=O)c1ccco1 (configuration not stated)
89. O=C(c1ccc(OC(F)F)cc1)N1CCOC(COCc2c(Cl)cccc2Cl)C1 (configuration not stated)
90. OCc1ccccc1O

entry no.,85,86,87,88,89,90
NPYLR7 ag,0.1,-3.1,-1.0,-8.9,15.1,-4.9
NPYLR7 ag max-min,-0.2,-5.7,565.1,-1.2,10.3,-12.4

91. CSCCC(NC(=O)COc1ccccc1)C(=O)N1CCCC(C)C1 (configuration not stated)
92. CN1CCN(C(=O)c2cn(Cc3cccc4ccccc34)nn2)CC1c1ccccc1 (configuration not stated)
93. COc1cccc(-n2c(SCc3ccccc3)nc3c(c2=O)SCC3)c1
94. CC(C)C(Cc1ccc(F)cc1)NC(=O)N1CCNC(=O)CC1 (configuration not stated)
95. CCC(Nc1cccc(OC)c1)C(=O)NCc1cc(=O)[nH]cn1 (configuration not stated)

entry no.,91,92,93,94,95
NPYLR7 ag,2.4,-2.9,-4.0,-0.7,10.2
NPYLR7 ag max-min,0.9,-5.4,-9.7,-1.7,8.4
